Arbovirus inh: antivirals against arbovirus infection, primary screen, cell-based, full library, 10K replicate subset; arbovirus infection cell-based antiviral screen; inhibition, % at 10 µM; actives 0.37% (n = 200,000); AID 1251, 2008;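 active = inhibition from about 30%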;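 note: bluetongue infection of BSR cells; cell survival read as ATP light after 72 h; 0% = infected wells without compound and 100% = uninfected wells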
YopH PTP inh: YopH tyrosine phosphatase inhibitors, primary screen, biochemical, fluorescence Ex485/Em525. inhibition, %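 (about 10 µM by stock and volumes)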. actives 0.16% (n = 140,000);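 active = inhibition of 50% or more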;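 note: controls were vehicle for no effect and minimum signal wells for full effect; inactives centre near -20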
RecA splice inh: Mtb RecA intein splicing inhibitors, primary screen, biochemical, fluorescence, HTS; cell-free RecA intein splicing; inhibition, %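 (about 9 µM by stock and volumes)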; actives 0.75% (n = 290,000); AID 2221, 2009; in the data active = inhibition above about 30%; inconclusive = no clear call, values can overlap the other calls;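 note: 0% = vehicle wells and 100% = reference inhibitor control wells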
Target sequence (P9WHJ3 whole entry, looked up, canonical isoform): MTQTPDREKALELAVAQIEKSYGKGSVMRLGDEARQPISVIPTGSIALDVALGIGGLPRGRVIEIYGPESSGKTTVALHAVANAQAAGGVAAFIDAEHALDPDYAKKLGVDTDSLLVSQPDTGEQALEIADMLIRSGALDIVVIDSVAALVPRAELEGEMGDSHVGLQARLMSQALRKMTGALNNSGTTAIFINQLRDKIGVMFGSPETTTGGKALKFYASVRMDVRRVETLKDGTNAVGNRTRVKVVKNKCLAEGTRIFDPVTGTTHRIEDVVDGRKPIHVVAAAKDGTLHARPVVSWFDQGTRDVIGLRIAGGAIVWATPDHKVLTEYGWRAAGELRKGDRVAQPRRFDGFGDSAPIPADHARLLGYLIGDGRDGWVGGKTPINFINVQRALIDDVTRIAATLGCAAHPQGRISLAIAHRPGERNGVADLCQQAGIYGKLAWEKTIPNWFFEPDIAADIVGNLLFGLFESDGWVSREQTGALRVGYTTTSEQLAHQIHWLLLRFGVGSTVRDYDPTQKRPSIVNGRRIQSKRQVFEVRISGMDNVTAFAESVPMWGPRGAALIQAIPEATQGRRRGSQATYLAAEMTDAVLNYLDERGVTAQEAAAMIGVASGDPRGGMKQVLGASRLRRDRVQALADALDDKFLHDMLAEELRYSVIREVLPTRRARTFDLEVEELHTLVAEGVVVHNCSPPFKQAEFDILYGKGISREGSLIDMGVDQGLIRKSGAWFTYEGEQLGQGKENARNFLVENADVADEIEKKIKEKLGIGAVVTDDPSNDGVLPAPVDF
Mtb H37Rv: M. tuberculosis H37Rv growth inhibitors, H37Rv strain (AID 1626). M. tuberculosis H37Rv growth inhibition; higher % means a stronger effect. one-dose inhibition, % at 10 µM; IC50 in µM for titrated hits. actives 0.95% (n = 220,000);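 active = confirmed in a dose series; inconclusive = inhibition above 80% but not taken into the dose series; inactive = below 80% or under 30% at every dose of the series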;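 note: bacteria incubated seven days before Alamar blue readout; 0% = bacteria only wells and 100% = bacteria with antibiotic wells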
Mtb bLac sens: beta-lactam sensitization of Mtb H37Rv, H37Rv | inhibition, % at 25 µM | actives 0.27% (n = 330,000) | M. tuberculosis H37Rv growth with meropenem, percent inhibition; hits of this screen are not shown here;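 active = about 74% or more and at least 40 points above the plate without the antibiotic, then above 30% in a dose series; inconclusive = first-round hits that could not be retested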;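 note: growth measured after seven days incubation then overnight dye step; 0% = bacteria only wells and 100% = bacteria with antibiotic; twin plates without the antibiotic show which effects depend on it; some results filed as inactive read as strong as hits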
Arbovirus inh repeat: second read-out of Arbovirus inh, no call of its own (marks repeat the call); inhibition, %; measured here: 10K subset replicate screen; many hits read low in the repeat;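 first of two repeat runs on a subset; 0% = infected and 100% = uninfected wells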
Numbers without * were called inactive; ? = inconclusive; / = no result given.

SMILES | Arbovirus inh | YopH PTP inh | RecA splice inh | Mtb H37Rv | Mtb bLac sens | others
CC(=O)c1cccc(N(C(=O)CNC(=O)c2ccco2)C(C(=O)NC2CCCC2)c2ccco2)c1 (stereo not given) | / | / | -3.3 | / | -8
Cc1ccc(N(CCC#N)C(=O)COC(=O)c2cc(C)no2)cc1 | / | / | -2.2 | / | -1
CCCSC1=C(C#N)C(c2ccccc2OCC)CC(=O)N1 (stereo not given) | -6 | -16 | 0.6 | -13% | -4
Cc1ccc(Sc2c(CO)c(-c3ccccc3)nn2C)cc1 | -6 | / | 2.3 | 8% | 5
O=C(CSc1ccc(Cl)cc1)NNC(=O)c1ccco1 | / | / | -0.4 | / | -11
Cn1c(=O)[nH]c(=O)c2c1nc(N/N=C/c1ccncc1)n2Cc1ccc(Cl)cc1 | / | / | / | 8% | 20
O=C1C(c2ccncc2)N(CCC2=CCCCC2)C(=O)CN1C1CCCCC1 (stereo not given) | 1 | -24 | 1.3 | -3% | -14
COc1ccc(-n2c(Cc3ccccc3)nnc2SCc2ccc([N+](=O)[O-])cc2)cc1 | -7 | -11 | 8.1 | 10% | -4
CCOC(=O)C1=C(C)N(CCCCCC(=O)O)C(=O)NC1c1ccc([N+](=O)[O-])cc1 (stereo not given) | / | / | -1.0 | / | 4
COCCNC(=O)COc1ncnc2scc(-c3ccc(F)cc3)c12 | 1 | / | 2.2 | 2% | -1
O=C(Nc1ccc(Cl)cn1)c1ccc2nccnc2c1 | / | / | -0.3 | / | -5
CCN1CCN(CCCNC(=O)Cn2nc(C)n3nc(-c4ccccc4)cc3c2=O)CC1 | / | / | -3.8 | / | -1
O=S(=O)(Nc1cccc(Br)c1)c1cccc2nsnc12 | / | / | 1.4 | / | 1
Cc1cc(NC(=O)C2CC(c3ccc(F)cc3)=NO2)no1 (stereo not given) | -1 | -16 | -2.2 | -1% | 1 | Arbovirus inh repeat=4
CCN(CC)C(=O)c1ccc(S(=O)(=O)N2CCC(c3nc4ccccc4s3)CC2)cc1 | 7 | -12 | -1.0 | -6% | -17
CCOC(=O)N1CCC(NC(=O)CCc2nc(C3=CCN(C)CC3)no2)CC1 | 15 | -1 | -3.3 | 3% | -6
Cc1noc(/C=C/N(C)C)c1S(=O)(=O)N1CCCC(C(=O)Nc2ccc3c(c2)OCO3)C1 (stereo not given) | -12 | -32 | / | -1% | -4 | Arbovirus inh repeat=-28
CC(C)(C)NC(=O)C1CN(S(=O)(=O)c2ccccc2)CCN1S(=O)(=O)c1ccccc1 (stereo not given) | 3 | -17 | -2.9 | 1% | -10 | Arbovirus inh repeat=0
O=C(COC(=O)CCc1ccccc1)Nc1ccc(F)cc1Cl | / | / | 2.0 | / | 2
COc1cccc(/C=N/N2CCN(C)CC2)c1 | 8 | 5 | 2.7 | -3% | 2

Next part (five carried over from the part before).
SMILES | Arbovirus inh | YopH PTP inh | RecA splice inh | Mtb H37Rv | Mtb bLac sens | others
CCOC(=O)N1CCC(NC(=O)CCc2nc(C3=CCN(C)CC3)no2)CC1 | 15 | -1 | -3.3 | 3% | -6
Cc1noc(/C=C/N(C)C)c1S(=O)(=O)N1CCCC(C(=O)Nc2ccc3c(c2)OCO3)C1 (stereo not given) | -12 | -32 | / | -1% | -4 | Arbovirus inh repeat=-28
CC(C)(C)NC(=O)C1CN(S(=O)(=O)c2ccccc2)CCN1S(=O)(=O)c1ccccc1 (stereo not given) | 3 | -17 | -2.9 | 1% | -10 | Arbovirus inh repeat=0
O=C(COC(=O)CCc1ccccc1)Nc1ccc(F)cc1Cl | / | / | 2.0 | / | 2
COc1cccc(/C=N/N2CCN(C)CC2)c1 | 8 | 5 | 2.7 | -3% | 2
CC(NS(=O)(=O)c1ccc(Br)cc1)C(c1cccs1)N1CCOCC1 (stereo not given) | 2 | -34 | 3.5 | 9% | 0
O=C(O)C1C(c2ccccc2)C(C(=O)N2CCOCC2)C1c1ccccc1 (stereo not given) | -4 | -52 | -1.4 | -7% | -7
CCc1ccc(OCC(=O)Nc2ccc(S(=O)(=O)N3CCOCC3)cc2)cc1 | / | / | 1.5 | / | -11
COc1ccccc1C(O)(C(=O)NNc1ccccc1C)c1ccccc1OC | -5 | -11 | -0.6 | 2% | 11
Cc1cc2c3c(c1)C(C)CC(C)(C)N3C(=O)C2=O (stereo not given) | -11 | / | 6.3 | 8% | -6
COC(=O)c1ccccc1NC(=O)CSc1nnc(-c2ccc(OC)cc2)n1C | 17 | -15 | 1.3 | 6% | -2
O=C(Nc1cccc(F)c1)C1CCCN(S(=O)(=O)c2ccccc2)C1 (stereo not given) | / | / | 2.4 | / | 2
N#CCCn1cc(C=O)c(-c2cccs2)n1 | -2 | / | 3.3 | 4% | -3
O=C(CCN1C(=O)/C(=C/c2ccccc2Cl)SC1=S)NC1CCCC1 | / | / | -2.5 | / | -7
O=c1c2cc(Br)ccc2[nH]c(=S)n1Cc1ccccc1 | / | / | 2.6 | / | 60
COC(=O)c1ccc(CN2CCN(C(C)C)C(CCO)C2)cc1 (stereo not given) | 1 | / | -2.6 | -3% | 7
CN1/C(=C\C=C2C(=O)NC(=S)NC2=O)C(C)(C)c2ccccc21 | -1 | / | -7.7 | 19% | /
Cc1nc(-c2ccc(NC(=O)c3ccccc3Br)cc2)cs1 | -11 | 0 | 1.3 | 5% | 7
Cc1ccc(/C(N)=N/OC(=O)c2ccc(Cl)cc2Cl)cc1 | 2 | -27 | 3.0 | 1% | 7
c1ccc(Cn2c3ccccc3c3nnc(SCCN4CCCCC4)nc32)cc1 | / | / | / | 12% | 62
COc1ccc(C(=O)C[n+]2ccc3ccccc3c2C)cc1 | / | / | -9.2 | 4% | 6
COC(=O)[C@@H](NC(=O)c1ccc2c(c1)S(=O)(=O)c1ccccc1C2=O)C(C)C | / | / | -1.6 | / | 6
CC(=O)NCCc1c[nH]c2ccc(OCc3ccccc3)cc12 | / | / | 0.7 | / | 2
Cc1oc(/N=C/c2cccc([N+](=O)[O-])c2)c(C#N)c1C | / | / | -1.0 | / | 4
CC1CC(C)CN(CCCNC(=O)C2CCCN(c3nnc(N4CCCC4=O)s3)C2)C1 (stereo not given) | 2 | -32 | -1.9 | -3% | -14
CC(=O)c1cn(N(C)c2ncc(C(F)(F)F)cc2Cl)c(=O)[nH]c1=O | 14 | / | 1.5 | -1% | 7
COc1cccc(/C=C2\SC(=S)N(c3cccnc3)C2=O)c1OC | 4 | / | 0.6 | 2% | 0
NC(=O)CSc1nnnn1CC(CC(=O)O)c1ccccc1 (stereo not given) | 2 | -29 | -0.1 | -16% | ?
O=C(NCc1cccnc1)c1ccc(COc2ccccc2Br)o1 | 5 | -6 | 0.9 | -10% | 3
COc1ccccc1CN(Cc1nc2ccccc2c(=O)[nH]1)S(=O)(=O)c1ccc2ccccc2c1 | -4 | -34 | 1.1 | 2% | -2
CN(C)S(=O)(=O)c1cccc(NC(=O)NCCCl)c1 | / | / | 0.6 | -6% | -2
CCCCN(CC)C(=O)CSc1nc2ccccc2c(=O)n1CC1COc2ccccc2O1 (stereo not given) | 0 | -96 | 1.2 | 0% | 5
O=C(c1ccc2snnc2c1)N1CCCCC1 | 5 | 3 | 1.3 | 2% | -8
OCCSc1c(F)c(SCCO)c(SCCO)c(F)c1SCCO | 0 | 23 | 4.6 | 2% | 0
O=C(CCC(=O)N1CCc2ccccc2C1)NCCc1ccc(Cl)cc1 | / | / | 1.1 | / | -3
COc1ccc(N2CCN(C(=O)c3csc4ccccc34)CC2)cc1 | 6 | -36 | -1.4 | 5% | 0
C=CCOc1ccc(/C=N/NC(=O)C2CCCC2)cc1OCC | / | / | 1.1 | / | 2
Cc1ccc(NC(=O)COc2cccc3ccc(C)nc23)c(Br)c1 | 5 | -29 | 3.6 | 8% | 0
Cc1c(NC(=O)C(C)OC(=O)c2c3c(nc4ccccc24)CCC(C)C3)c(=O)n(-c2ccccc2)n1C (stereo not given) | / | / | 1.2 | / | -9
Cc1ccc2c(c1)C1CN(C)CCC1N2C(=O)c1ccccc1NS(=O)(=O)c1ccc(F)cc1C (stereo not given) | 5 | -30 | -0.6 | 1% | 4
CN(C)Cc1ccccc1C1(O)c2ccccc2CSc2ccccc21 (stereo not given) | -7 | 1 | 13 | 11% | -1
CN1CCCC(OC(=O)c2cccc(Cl)c2)C1 (stereo not given) | / | / | 2.4 | -3% | -7
O=C(Nc1ccc(Cn2nnc3ccccc32)cc1)c1ccco1 | -35 | -24 | 0.7 | 2% | -14
O=C(COc1cccnc1[N+](=O)[O-])Nc1ccc2c(c1)CCC2 | / | / | -2.3 | 0% | 3
CC(C)C(NC(=O)c1ccco1)C(=O)NCC(c1ccco1)N(C)C (stereo not given) | 4 | -13 | -1.1 | -3% | 5

Molecules above that contain a nitro group on carbon (four):
SMILES | Arbovirus inh | YopH PTP inh | RecA splice inh | Mtb H37Rv | Mtb bLac sens | others
COc1ccc(-n2c(Cc3ccccc3)nnc2SCc2ccc([N+](=O)[O-])cc2)cc1 | -7 | -11 | 8.1 | 10% | -4
CCOC(=O)C1=C(C)N(CCCCCC(=O)O)C(=O)NC1c1ccc([N+](=O)[O-])cc1 (stereo not given) | / | / | -1.0 | / | 4
Cc1oc(/N=C/c2cccc([N+](=O)[O-])c2)c(C#N)c1C | / | / | -1.0 | / | 4
O=C(COc1cccnc1[N+](=O)[O-])Nc1ccc2c(c1)CCC2 | / | / | -2.3 | 0% | 3

Next section.
SMILES | Arbovirus inh | YopH PTP inh | RecA splice inh | Mtb H37Rv | Mtb bLac sens | others
CCOC(=O)/C(=N\Nc1cccc(C(F)(F)F)c1)N1CCOCC1 | -23 | / | -6.6 | ? | -1
O=C(O)c1cccc(S(=O)(=O)N2Cc3ccccc3C2)c1 | 7 | -34 | -0.8 | -4% | -9
CC(=O)Nc1ccc(-c2nnn(CC(=O)Nc3ccc4c(c3)OCO4)n2)cc1Cl | 4 | / | -2.1 | 2% | 3
CC(=O)Nc1ccc(N=C(C2=C(O)c3ccccc3C2=O)c2ccccc2)cc1 | -23 | / | 7.4 | 1% | 8
CCN(CC)C(=O)COc1ccc(S(=O)(=O)N2CCOCC2)cc1 | 8 | -9 | -2.2 | 1% | -4
Cc1nnsc1S(=O)c1ccc(Cl)c(Cl)c1 (stereo not given) | / | / | 13 | / | -6
NC(=O)CSc1ncc(-c2ccc([N+](=O)[O-])cc2)[nH]1 | -2 | / | 3.5 | -4% | 0
CNC(=O)/C(C#N)=C/c1ccc(OCCOc2ccccc2)cc1 | / | / | 1.6 | / | 58
Cc1ccc(NC(=O)CN2CCC(NC(=O)C3CCCCC3)CC2)c(Br)c1 | -1 | -9 | -1.2 | 4% | -2
Cc1cc(C(=O)N(C)Cc2ccc(Br)cc2)no1 | -1 | -23 | 0.3 | 6% | -10
NC1(C(=O)O)CC1 | / | / | -5.4 | -12% | -6
COc1ccc(-c2cc(C(=O)NCC3CCCO3)c3ccccc3n2)c(OC)c1 (stereo not given) | / | / | 3.2 | / | -8
COC(=O)c1sccc1NC(=O)CSc1ccccc1NS(=O)(=O)c1ccccc1Cl | 4 | -19 | 10 | -6% | -2
COc1ccc(CCNC(=O)C2CC(c3cccc(F)c3)=NO2)cc1 (stereo not given) | / | / | -2.0 | 5% | 0
NNC(=O)c1cnn(-c2ccccc2)c1-n1cccc1 | -8 | / | -2.5 | -4% | -6

Source: PubChem (several laboratories)

Only part of the results is shown, so the mix of outcomes need not match the whole.
